Compound activity deposited in PubChem BioAssay by ICCB-Longwood Screening Facility, Harvard Medical School.
HCMV UL50-53 inh: disrupts HCMV UL50-UL53 complex binding; HTRF UL50-UL53 interaction, normalized percent inhibition; inhibition, % (test concentration not listed); 190,000 compounds, 0.15% hits; AID 1918969;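 active = both replicates at 50% or more, plus weaker picks with an unusually low signal ratio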;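 note: stock transfer was 100 nL into about 20 µL; 0% = negative control wells and 100% = wells with untagged competitor protein; inactives centre near -12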
Sa growth 42C: S. aureus growth inhibition. S. aureus RN4220 growth, OD600, 20 h, 42 °C; active compounds read low. relative growth, % (concentration not given with the values). 170,000 compounds, 0.53% hits;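 active = growth at 42 °C up to 50% and 20 or more points under that at 30 °C, or under 10% at both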;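 note: 300 nL library stock went into each well; scaled to the means of positive and negative controls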
GIV-Gai inh: GIV-Galpha-i interaction inhibition | P08753 | Galpha-i3/FITC-GIV peptide fluorescence polarization, 90 min; active compounds read low; scaled: aluminum fluoride 0%, vehicle 100% | percent of control (FP), % (test concentration not listed) | 210,000 compounds, 0.42% hits | AID 1224905;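 active = replicate mean at 85% of control or lower, very high polarization wells dropped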;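 note: lower values mean more displacement of the GIV peptide from Galpha-i3; wells of about 15 µL received 100 nL stock; the first replicate is given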
Target sequence (P08753 whole entry, looked up): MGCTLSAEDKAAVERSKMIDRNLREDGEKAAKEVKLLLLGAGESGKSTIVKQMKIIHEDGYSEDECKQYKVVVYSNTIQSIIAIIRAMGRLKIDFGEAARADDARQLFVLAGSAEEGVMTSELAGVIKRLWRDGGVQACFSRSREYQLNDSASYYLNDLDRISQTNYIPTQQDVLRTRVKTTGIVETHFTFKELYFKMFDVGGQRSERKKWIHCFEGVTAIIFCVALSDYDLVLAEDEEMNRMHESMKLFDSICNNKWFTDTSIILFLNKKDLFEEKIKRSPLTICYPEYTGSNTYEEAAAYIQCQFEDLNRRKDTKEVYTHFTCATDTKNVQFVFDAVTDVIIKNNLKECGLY
Sa growth 42C second temp: further read-out of Sa growth 42C, marked with its call; relative growth, %; measured here: growth at 30 °C;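 optical density after 20 h as mean of two plates; 100% = untreated growth and lower means inhibition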
* = called active by the depositor; . = not tested or not shown; & = joins results of further samples. Compounds were not picked by outcome (roughly 0.79% active in at least one column).

SMILES	HCMV UL50-53 inh	Sa growth 42C	Sa growth 42C second temp	GIV-Gai inh
O=C1CSC(N=Nc2c(O)[nH]c3ccccc23)=N1	-84	79	69	110
CC(C)(C)Nc1ncnc2c1cnn2-c1ccc(Cl)cc1	.	116	83	104&104
CC(C)CCNC(=O)c1nnc(Cc2ccc(Cl)cc2)o1	.	110	89	104
CC1=C/C(=N/NC(=O)c2nc3ccccn3c2C)CC(C)(C)C1	-17	73	85	.
O=C(NC1CCS(=O)(=O)C1)C1CCN(c2nc3ccccc3nc2C(F)(F)F)CC1 (stereo not given)	-38	.	.	102
CC(C)Cn1ccn(-c2cccc(Cl)c2)c(=O)c1=O	-24	92	68	118
Cc1cccc(NC(=O)CSc2ncc(-c3ccccc3)[nH]2)c1C	-4	104	87	98
CCOC(=O)c1cc2ccsc2n1C(CC)C(=O)N1CCOCC1 (stereo not given)	-6	.	.	107
CSc1ncc(C(=O)Nc2ccccc2C(=O)c2ccccc2)c(C(F)(F)F)n1	.	120	98	102
c1ccc2c(c1)CC(CN1CCNCC1)O2 (stereo not given)	7	104	84	106
Cc1ccc(-c2nnc3ccccc3c2C(=O)Nc2ccc(F)cc2)cc1	.	108	103	105
CCOC(=O)c1ccc(NC(=O)NCCOCCn2c(=O)oc3ccccc32)cc1	-15	96	80	98
CCN(c1ccc(OC)cc1)S(=O)(=O)c1ccc(-c2cc(C(F)(F)F)no2)s1	-23	82	88	101
Cc1onc(-c2ccccc2Cl)c1C(=O)OCC(=O)c1ccccc1	-24	91	85	101
O=C(O)c1cc(C(=O)O)c2cc(Cl)ccc2n1	-35	86	83	91
CCc1ccccc1NC(=O)c1cccc(-c2noc(C)n2)c1	-14	.	.	97
CCc1ccc(NC(=O)c2cc(C3CC3)on2)cc1	-5	99	98	100
c1cc2c(cc1-n1nnnc1SCC1CC1)OCO2	-11	97	76	.
Cc1ccccc1CN1C(=O)c2ccccc2S(=O)c2ccc(C(=O)N3CCCCC3)cc21 (stereo not given)	-23	.	.	98
Cc1ccc(C)c(-c2nnc(NC(=O)C3CC3)o2)c1	-33	67	71	104
Cc1ccc(Cl)cc1N(C)C(=O)c1cnc(N2CCOCC2)c2ccccc12	.	85	83	105
CC(=O)N1CCCc2cc(S(=O)(=O)N(C)CC(=O)Nc3cccc(Cl)c3C)ccc21	.	86	84	105
Cc1cc(C)n(-c2ccc(S(N)(=O)=O)cc2)n1	-11	110	90	99
N#Cc1ccccc1NC(=O)CSc1ncnc2ccccc12	-25	101	81	.
O=C(COC(=O)CC1CC2CCC1C2)NCc1ccc(F)cc1 (stereo not given)	-5	119	94	.
COc1ccc(-c2nc(CCNC(=O)c3cc(OC)c(OC)c(OC)c3)cs2)cc1	.	99	98	100
Cc1ccc(-c2c(C(F)(F)F)nn3c(NCCN(C)C)cc(C)nc23)cc1	0	.	.	95
COc1ccc(C(=O)CSc2nnc(-c3ccc4c(c3)OCO4)n2-c2ccccc2)cc1	-25	.	.	99
CCn1cnc(S(=O)(=O)N2CCCC(C(=O)N3CCCCC3)C2)c1 (stereo not given)	-1	.	.	107
Cc1ccc(Cc2nc(CCNC(=O)CC3CCCC3)n[nH]2)cc1	12	.	.	101
CC(=O)Nc1ccc(S(=O)(=O)N2CCC(n3cnc4cccnc43)CC2)cc1	-8	.	.	102
Cc1ccc(S(=O)(=O)N2CCC(C(=O)NCc3ccccc3Cl)CC2)cc1	.	102	88	101
Cc1noc(C)c1S(=O)(=O)N1CC(C)OC(C)C1 (stereo not given)	-3	110	93	101
Cc1cccc(-c2csc(-c3nc(-c4cccnc4)no3)c2-n2cccc2)c1	-14	.	.	101
O=C(Nc1ccc(F)cc1F)N1CCN(c2cnccn2)CC1	-32	.	.	102
O=C(O)CC1(Cc2nc3ccccc3s2)CCCC1	-28	116	93	.
Cc1nn(CCCC(=O)NCCN2CCN(C)CC2)c(=O)c2c(-n3cccc3)n(-c3ccccc3)nc12	9	.	.	102
Fc1ccc2nc(NCc3ccccc3)sc2c1	-34	112	94	.
Cc1cc(C(=O)CSc2nc(N)nc(N)n2)c(C)n1CCC1=CCCCC1	7	107	98	.
O=C(NC1CCS(=O)(=O)C1)c1nc(Nc2ccccc2)c2ccccc2n1 (stereo not given)	-47	.	.	101
COc1ccc(/C=C2\Oc3ccccc3N(CC(=O)NC(C)c3ccccc3)C2=O)cc1 (stereo not given)	.	68	96	101
O=C(O)c1ccc(Nc2cnn(C34CC5CC(CC(C5)C3)C4)c(=O)c2Cl)cc1	-33	95	89	99
CC(C)(C)c1cc(C(=O)N(CCO)CCO)cc(C(C)(C)C)c1	15	90	101	.
Cc1ccn2c(NC(=O)c3cccs3)c(-c3ccccc3)nc2c1	5	.	.	107
Cc1cc(C)cc(NC(=O)Cn2ncn3c(cc4ccccc43)c2=O)c1	12	.	.	102
COc1ccccc1C(=O)NC1=NN(c2ccc3ccccc3c2)CC1	-4	102	75	.
CCn1cc(C(=O)NCCN(CC(C)C)CC(C)C)c(=O)c2cc(S(=O)(=O)N(C)C3CCCCC3)ccc21	-12	94	81	104
C=CCN(CC=C)C(=O)c1csc(Nc2ccc(OC)cc2)n1	-31	80	74	105

Compound profiles, from the list above. Order of screens: HCMV UL50-53 inh	Sa growth 42C	Sa growth 42C second temp	GIV-Gai inh
Fc1ccc2nc(NCc3ccccc3)sc2c1 as listed: -34	112	94	.
CC(C)(C)c1cc(C(=O)N(CCO)CCO)cc(C(C)(C)C)c1 as listed: 15	90	101	.
COc1ccccc1C(=O)NC1=NN(c2ccc3ccccc3c2)CC1 as listed: -4	102	75	.
CCn1cc(C(=O)NCCN(CC(C)C)CC(C)C)c(=O)c2cc(S(=O)(=O)N(C)C3CCCCC3)ccc21 as listed: -12	94	81	104
Cc1ccn2c(NC(=O)c3cccs3)c(-c3ccccc3)nc2c1 as listed: 5	.	.	107

(further entries)
SMILES	HCMV UL50-53 inh	Sa growth 42C	Sa growth 42C second temp	GIV-Gai inh
C[C@@H]1CC[C@H]2[C@H](C)[C@H]3CC[C@@]4(O)C5C[C@@H](O)[C@H]6C[C@H](O)CC[C@]6(C)[C@H]5C[C@H]4[C@@H]3CN2C1 (stereo not given in full)	-28	106	90	105
Cc1c(C=Nc2ccc(S(=O)(=O)N(C)C)cc2)c(O)n(C)c(=O)c1C#N	-4	81	91	.
O=C(CSCc1cnn(-c2ccccc2)c1-n1cccc1)N1CCCCC1	9	102	85	100
CC(C)(CO)NC12CC3CC(CC(C3)C1)C2	3	91	100	.
Cc1ccc(NC(=O)c2noc3c2CCc2ccccc2-3)cc1	5	96	108	100
COCCNC(=O)CSc1nnc(-c2ccoc2C)o1	-25	.	.	101
CCc1ccc2[nH]c(C(=O)NC(C)COC)cc2c1 (stereo not given)	10	111	94	109
CCOc1ccc(C2N=C(Nc3ccc(C)c(C)c3)Nc3nc(C)cc(=O)n32)cc1 (stereo not given)	-23	.	.	101
O=C1C2C(C(=O)N1/N=C/c1ccccc1)C1C=CC2C12CC2 (stereo not given)	-11	97	108	103
Cc1cc(-c2ccc(S(=O)(=O)Nc3ccc(Br)c(C)c3)s2)on1	.	90	89	100
Cc1ccc2c(c1)-c1c(cnn1CC(=O)NC(C)c1ccccc1)CO2 (stereo not given)	-30	.	.	102
CCOC(=O)c1ccc(N2C(=O)CS(=O)(=O)CC2=O)cc1	-23	96	91	106
Cc1cccc2cc3c(nc12)N(C(=O)c1cccc(Br)c1)CC3	-12	.	.	103
COc1ccc(CCNC(=O)Cc2nn(C)c(=O)c3ccccc23)cc1OC	12	101	112	105
O=C(O)C(CO)NS(=O)(=O)c1ccc(F)cc1 (stereo not given)	7	104	72	101
Nc1ncc(Cc2ccccc2)s1	4&-12	95	87	102
Nc1nnc(SCC(=O)NCc2ccco2)n1CC(=O)NCc1ccco1	-10	116	98	102
O=C(Nc1cscc1S(=O)(=O)c1ccccc1)c1ccccc1Cl	6	121	86	104
COc1ccc(OC)c(C2CC(c3c(-c4ccccc4)c4cc(Cl)ccc4[nH]c3=O)=NN2C(=O)CCC(=O)O)c1 (stereo not given)	-26	.	.	104
O=c1[nH]c2cc(C(F)(F)F)ccc2n1-c1cc(C(F)(F)F)ccc1O	-6&3	.	.	94
CCOC(=O)C1=C(O)/C(=C\c2sccc2C)N=C1C	-97	94	105	102
Nc1nc(SCc2cc(=O)oc3ccc4ccccc4c23)n[nH]1	-94	66	40	.
Cc1ccc(CNc2nc(C)cc(=O)[nH]2)cc1	-7	.	.	105
CCOC(=O)c1c(NC(=O)c2cc(-c3cccc(OC)c3)on2)sc2c1CCCC2	-15	100	88	103
O=C(Cn1nc(-c2ccccc2)c2cc(Cl)ccc21)Nc1ccc(F)cc1F	-15	.	.	104
CCCc1cc(=O)[nH]c(-n2nc(C)cc2NC(=O)c2ccc(Br)cc2)n1	-14	.	.	97
CS(=O)(=O)N(CC(=O)NCCSCc1ccccc1)c1cc(C(F)(F)F)ccc1Cl	16	103	98	104
Cc1nc(SCC(=O)Nc2ccccc2C)cc(-c2ccccc2)n1	4	102	91	103
Fc1ccc(Nc2c(-c3ccccn3)nc3ccc(Cl)cn23)cc1	-11	93	87	101
CCCC(=O)Nc1nc2ccc(CCC(=O)Nc3ccc(CC)cc3)cc2s1	-22	.	.	101
Cc1c(C(=O)OCCOc2ccccc2)[nH]c2c1C(=O)CC(c1ccccc1)C2 (stereo not given)	3	120	98	107
CSc1ccc(C=C2C(=O)c3ccccc3C2=O)cc1	-38	106	88	.
COCCn1nnc2cc(S(=O)(=O)N3CCCCC3C(=O)Nc3c(C)cccc3C)ccc21 (stereo not given)	-8	.	.	110
COc1ccccc1NC(=O)CSc1nc2n[nH]c(C)c2c(=N)n1-c1ccc(C)c(Cl)c1	.	102	84	96
O=C(COc1ccccc1)Nc1ccc(C(=O)OCc2cc(=O)n3nc(C4CC4)sc3n2)cc1	.	95	89	101
CCn1nnc2c(Nc3ccc4c(c3)OCO4)ncnc21	-38	99	72	104
C=CCN(CC=C)S(=O)(=O)c1ccc(N)cc1	-7	116	97	101
Cn1ccnc1Sc1nc(Nc2cccc(Cl)c2)nc(N2CCOCC2)n1	-30	.	.	106
O=c1cnc2ccccc2n1Cc1ccc(Br)cc1	-66	88	91	.
CC(C)(CN1CCCCCC1)NS(=O)(=O)c1ccc(Cl)cc1	-17	96	99	.
COc1ccccc1CNc1ccc(-c2nc(-c3ccco3)no2)cc1[N+](=O)[O-]	-6	103	87	102
O=C(NCC1(c2ccccc2)CCCC1)c1cc2c(s1)-c1ccccc1S(=O)(=O)C2	.	101	88	103
CS(=O)(=O)CCC1NC(=O)N(CC(=O)c2ccccc2)C1=O (stereo not given)	11	92	92	.
Cc1ccc(Cl)cc1NC(=O)N1CCC2(CC1)Oc1ccccc1C(=O)N2Cc1ccccc1F	11	94	90	104
Nc1nc(Cl)nc2c1ncn2[C@@H]1O[C@H](CO)[C@H](O)C1O (stereo not given in full)	-21	.	.	102
COc1ccc(NC(=O)c2c(-c3ccccc3)c(-c3ccccc3)n[nH]c2=O)cc1	-13	.	.	111
O=C(Nc1c(-c2ccccc2)nc2ccccn12)c1ccc([N+](=O)[O-])cc1	-60	.	.	101
CCc1ccccc1NC(=O)c1cn(C)c(=O)c2ccccc12	6	83	88	103

2 entries picked at random from the list so far:
SMILES	HCMV UL50-53 inh	Sa growth 42C	Sa growth 42C second temp	GIV-Gai inh
Cn1ccnc1Sc1nc(Nc2cccc(Cl)c2)nc(N2CCOCC2)n1	-30	.	.	106
CC(C)(CN1CCCCCC1)NS(=O)(=O)c1ccc(Cl)cc1	-17	96	99	.

Further compounds.
SMILES	HCMV UL50-53 inh	Sa growth 42C	Sa growth 42C second temp	GIV-Gai inh
c1ccc2c3nnc4n(c-3nc2c1)CCCS4	-120	104	75	110
C=CCc1cccc2cc(C(=O)N3CCN(c4ccccc4F)CC3)c(=O)oc12	-13	85	84	.
O=C(Cn1ncc2c3ccccc3n(Cc3ccc(Cl)cc3)c2c1=O)NCCC1=CCCCC1	-31	91	83	137
Cc1ccc2cc(NC(=O)C3CC(=O)N(Cc4ccco4)C3)ccc2n1 (stereo not given)	33	102	85	99
Fc1ccc(-c2noc(CSc3ccc(-c4ccc5c(c4)OCO5)nn3)n2)cc1	14	.	.	114
CCNc1nc(NCC)nc(Oc2ccc(C(=O)OC)cc2)n1	-1	.	.	97
CC1(C)CC(CCC(=O)NC(=S)Nc2ccccc2Cl)C(=O)O1 (stereo not given)	.	99	73	106
Cc1ccc(-n2c(C)csc2=N)cc1	-50	90	69	.
CCOc1ccc(CC(=O)Nc2c(C(=O)c3ccc(C)cc3)oc3ccccc23)cc1OCC	-5	112	92	106
COC(=O)c1ccc(OCC(=O)/C(C#N)=C(\C)N)cc1	-8	92	79	.
Cc1cc(CN2CCN(c3cccc(C)c3C)CC2)cs1	.	78	99	110
O=C(NCc1ccccc1)c1ccc(CN2C(=O)CSc3ncccc32)cc1	-2	.	.	110
COc1ccc(OC)c(NC2=C(c3ccccc3)C(=O)c3ccccc32)c1	-69	115	85	106
CN(C)c1nc(Cl)nc(NCCCC(=O)O)n1	-9	107	80	105
O=C(O)c1cc2ccccc2[nH]c1=O	-7	114	96	102
O=C(Cn1c(SCc2ccccc2F)nc2ccncc21)Nc1ccccc1C(F)(F)F	-11	99	83	100
